From PubChem BioAssay
Ecoli rRNA inh: selective bacterial rRNA inhibition in E. coli; E. coli WT GFP vs humanized-ribosome RFP mutants, fluorescence, 24 h; hits give low values; DMSO median 0, no signal -100; GFP signal change (wild-type ribosome), % (concentration not given with the values); 350,000 compounds, 1.6% hits;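 active = significant combined selectivity score with lowered wild-type GFP, culture density cut under 30%, mutant RFP and density less affected; inactive = any of these conditions unmet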; note: one replicate is shown; some compounds called inactive have numbers as strong as hits
FGF22 binding: shifts melting point of recombinant human FGF22. recombinant FGF22 thermal shift, SYPRO orange fluorescence; percent of sucrose octasulfate shift, DMSO zero. 340,000 compounds, 1.5% hits. AID 651658. calls only at 9.99 µM. Q9HCT0;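 active = melting point raised past a set limit in the mean and every replicate; inconclusive = no clear call; three in four hits are not shown here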
Target sequence (Q9HCT0 whole entry, looked up): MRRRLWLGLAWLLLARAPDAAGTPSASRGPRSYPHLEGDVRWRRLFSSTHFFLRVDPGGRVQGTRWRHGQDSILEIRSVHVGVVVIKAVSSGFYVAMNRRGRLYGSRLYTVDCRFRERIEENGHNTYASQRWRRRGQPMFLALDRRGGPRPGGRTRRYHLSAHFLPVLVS
ALR inh: human ALR oxidase inhibition via reduced H2O2; P55789; inhibition, % (concentration not given with the values); 290,000 compounds, 3.8% hits; purified ALR, DTT oxidation, H2O2 HRP-luminol luminescence;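 active = mean and each replicate at 75% or more; inconclusive = only one of the two met; inactive = neither met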;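 note: stock transfer was 7.5 nL into about 7.5 µL; 0% = neutral wells and 100% = wells with inactivated enzyme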
Target sequence (P55789 whole entry, looked up): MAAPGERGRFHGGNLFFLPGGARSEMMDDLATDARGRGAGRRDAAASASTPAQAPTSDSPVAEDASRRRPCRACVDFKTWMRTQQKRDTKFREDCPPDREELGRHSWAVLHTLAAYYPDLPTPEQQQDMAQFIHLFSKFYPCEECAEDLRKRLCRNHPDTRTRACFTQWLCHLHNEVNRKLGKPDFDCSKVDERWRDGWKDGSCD
T cruzi repl: blocks replication of Trypanosoma cruzi; T. cruzi beta-gal in NIH3T3, luminescence, 90 h; AID 1885; inhibition, % (concentration not given with the values); 300,000 compounds, 1.4% hits;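 active = mean inhibition across valid replicates above about 55%, limit read from the data; inconclusive = mean below that limit but half or more replicates reach it; inactive = mean below it, under half of replicates reach it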;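 note: signal also drops with host cell toxicity which is not excluded here; 0% = plate median of DMSO wells and 100% = zero luminescence signal; higher percent means less beta-gal luminescence so fewer parasites; stock transfer was 50 nL into about 50 µL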
RanGTP-Imp inh: inhibitors of RanGTP-importin-beta interaction, primary screen, biochemical, FRET, CFP-Ran, YFP-importin-beta, homogeneous | cell-free CFP-Ran/YFP-importin-beta FRET ratio | inhibition, % (no concentration beside the values) | 300,000 compounds, 1.1% hits;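 active = most replicates above 15%; inconclusive = exactly half above 15%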;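 note: 0% = DMSO wells and 100% = Ran loaded with GDP instead of GTP; wells of about 40 µL received 100 nL stock; the first replicate is given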
Calb FLC: C. albicans growth modulation with fluconazole; C. albicans CaCi-2 (fluconazole-resistant clinical isolate) + fluconazole, Alamar Blue growth, 48 h; growth inhibition, % (test concentration not listed); 300,000 compounds, 0.57% hits;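 active = most replicates above 75%; inconclusive = exactly half above 75%; inactive = most below 75%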;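 note: all wells also contain fluconazole at 8 µg/ml as a sub-toxic cotreatment; 0% = median of DMSO wells and 100% = median of geldanamycin control wells; wells of about 8 µL received 7.5 nL stock; the first replicate is given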
Beta cell apopt: beta cell apoptosis inhibition | 300,000 compounds, 0.8% hits | INS-1E cytokine-induced death, ATP luminescence, 48 h; percent of positive-control rescue, neutral wells zero | protection from apoptosis, % (test concentration not listed);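 active = all replicates at 75% or more, or half of them and the mean; inconclusive = half reach 75% but not the mean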;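 note: 0% = cytokine-treated negative control wells and 100% = positive control rescue; higher means more ATP so stronger rescue from cytokine killing; wells of about 40 µL received 100 nL stock; the first replicate is given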
AF4-AF9 inh: inhibitors of human MLL-AF4/AF9 interaction. AlphaScreen, biotin-AF4 peptide binding to FLAG-AF9. inhibition, % at 10 µM. 350,000 compounds, 0.47% hits;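 active = every replicate reaching a set inhibition limit, whatever the replicate mean, cut at about 25% in these data; inconclusive = mean inhibition reaches that limit but some replicates miss it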;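 note: 0% = plate neutral control median and 100% = total signal loss; the record names both 10 and 1 µM as test concentration; the first replicate is given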
Target sequence (P42568 whole entry, looked up): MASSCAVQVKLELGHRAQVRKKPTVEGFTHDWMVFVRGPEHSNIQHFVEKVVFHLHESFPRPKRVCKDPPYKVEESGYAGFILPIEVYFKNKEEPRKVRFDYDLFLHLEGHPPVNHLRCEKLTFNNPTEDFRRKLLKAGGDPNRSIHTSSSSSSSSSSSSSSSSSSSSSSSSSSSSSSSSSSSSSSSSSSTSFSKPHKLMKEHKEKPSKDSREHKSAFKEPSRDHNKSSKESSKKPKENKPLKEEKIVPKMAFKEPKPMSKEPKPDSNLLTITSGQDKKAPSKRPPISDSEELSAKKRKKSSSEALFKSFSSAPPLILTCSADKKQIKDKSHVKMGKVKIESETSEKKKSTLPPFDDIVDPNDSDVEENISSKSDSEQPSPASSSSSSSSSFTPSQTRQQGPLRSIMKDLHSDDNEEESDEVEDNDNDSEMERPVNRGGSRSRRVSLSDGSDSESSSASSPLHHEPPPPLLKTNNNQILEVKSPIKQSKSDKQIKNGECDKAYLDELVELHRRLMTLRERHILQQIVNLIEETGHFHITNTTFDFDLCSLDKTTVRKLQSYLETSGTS
Ecoli rRNA inh OD600: second read-out of Ecoli rRNA inh, no call of its own (marks repeat the call); OD600 change, %; measured here: OD600 growth;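 optical density of the mix in the first replicate; 0 = DMSO median and -100 = no signal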
Ecoli rRNA inh RFP: second read-out of Ecoli rRNA inh, no call of its own (marks repeat the call); RFP signal change, %; measured here: RFP humanized mutant strains;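 first replicate; 0 = DMSO median and -100 = no signal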
* = called active by the depositor; i = inactive; ? = inconclusive; . = no result given. This is a subset; count on the stated rates, not on these rows.

SMILES	Ecoli rRNA inh	Ecoli rRNA inh OD600	Ecoli rRNA inh RFP	FGF22 binding	ALR inh	T cruzi repl	RanGTP-Imp inh	Calb FLC	Beta cell apopt	AF4-AF9 inh
CCCCCCCCCCCCN1[C@@H](CC(=O)O)c2cc(F)ccc2S1(=O)=O	-2	1	13	i	98*	1	-1.3	29	-8	0.1
COc1cc(C)c(NC(=O)COc2ccc3c(c2)CCC3)cc1OC	8	7	-1.2	i	.	.	.	.	0	-2.6
Cc1ccc(Cc2nnc3n(-c4ccccc4)nc(C(=O)c4ccccc4)n3c2=O)cc1	.	.	.	.	-2	23	2.8	-10	.	.
CN(CC(=O)NCCc1ccc(S(N)(=O)=O)cc1)CC(=O)Nc1ccccc1C(F)(F)F	12	20	0.4	i	54	.	.	.	2	-0.1
CC(=O)c1cn(CC(=O)Nc2ccccc2Cl)c2ccccc12	4	7	-1.4	i	-1	-34	1.6	-11	1	0.9
CCOC(=O)C1CCN(C(=O)c2ccc(OCC(=O)N3CCOCC3)c(OC)c2)CC1	21	15	-1.4	i	-1	1	7.6	-12	.	0.9
O=C(NCc1ccccc1Cl)c1ccc[nH]1	-1	5	-5.1	i	-2	-1	-0.9	-14	-1	0.6
CCOc1ccccc1/C=N/NC(=O)Cc1csc(Nc2cccc(C(F)(F)F)c2)n1	.	.	.	.	-17	-2	-0.5	10	2	.
CCn1c(O)c(N=NC(=O)C(O)c2ccccc2)c2ccccc21 (stereo not drawn)	5	-1	-4.0	i	.	-2	0.5	-1	2	-3.7
CC(=O)c1ccc(-n2c(CCC(=O)O)ccc2-c2ccccc2)cc1	-7	-9	0.5	i	15	-6	-0.4	-6	-6	4.3
C/C(N)=C(/C#N)C(=O)COC(=O)c1cc(-c2cccc3ccccc23)nc2ccccc12	.	.	.	.	-4	32	5.0	?	5	.
CCOC(=O)c1ccc(NC(=O)C(=O)NCc2ccco2)cc1	11	11	0.6	i	-3	-15	-17	-7	0	-0.8
COc1ccc(-c2cc(-c3ccccc3O)[nH]n2)cc1OC	.	.	.	.	.	6	1.7	4	-1	.
O=C1CCN(CCc2ccccc2)CCN1[C@H](CO)Cc1ccccc1	10	19	-4.4	i	1	2	-1.0	-7	-1	1.5
O=C(O)CC(C(=O)Nc1ccc(Cl)c(Cl)c1)C1CCCO1 (stereo not drawn)	6	5	-4.8	i	0	-4	4.0	-1	-1	-52
O=C1NC2(CCN(Cc3ccccc3)CC2)Oc2ccccc21	6	0	0.4	i	0	18	6.1	?	3	-4.1
CC(C)C(O)(C#CCN1CCCCCC1)c1ccccc1 (stereo not drawn)	0	0	-2.4	i	-8	-37	4.6	-7	-3	0.7
Cc1ccccc1Cn1ccc(NC(=O)c2cnn3cccnc23)n1	-5	-6	-1.8	i	-6	-7	-2.8	3	-3	-1.0
CN(C)CCCNC(=S)/N=c1\sccn1Cc1ccccc1Cl	6	-1	-2.6	i	5	42	-5.5	8	-3	8.6
Cc1ccccc1NC(=S)NC(=O)CCc1ccccc1	.	.	.	.	-1	1	-5.5	-34	-6	.
Cc1cc(N/N=C/c2ccc(O)cc2)nc(NS(=O)(=O)c2ccccc2)n1	.	.	.	.	4	-2	-1.0	-20	-9	.
CCOc1ccc(Cl)cc1S(=O)(=O)N1CCC(C(=O)NCc2ccco2)CC1	1	0	1.8	i	-2	10	2.8	-10	5	-0.7
Fc1ccccc1N1CCN(Cc2cccnc2)CC1	.	.	.	.	-2	-9	4.5	-22	-3	.
O=C1C(c2ccc(F)cc2)N(Cc2ccc3c(c2)OCO3)C(=O)CN1C1CCCCC1 (stereo not drawn)	-26	-45	-8.9	i	-3	15	3.2	-30	-6	6.1
C/C(=N\NC(=O)c1ccncc1)c1ccc(NC(=O)c2ccc(Cl)cc2)cc1	-2	0	1.6	.	-2	-6	5.8	-2	6	-0.6
COc1ccc(CC(=O)N/N=C/c2ccc(-c3cccc(C(=O)O)c3)o2)cc1OC	17	0	1.1	i	-4	-18	2.8	5	-5	.
Cc1c(Cl)c([N+](=O)[O-])nn1CC(=O)NCc1ccc(Cl)cc1	18	20	3.0	i	-14	12	-6.4	-30	0	-6.2
Cn1c(CO)c(-c2ccccc2)c2cc([N+](=O)[O-])ccc21	.	.	.	.	-10	9	9.7	10	-8	.
O=C(COc1ccccc1/C=C1\SC(=O)NC1=O)Nc1ccc(F)cc1	-17	-8	2.2	i	13	21	-1.4	?	7	-4.6
CCCCn1c(N)c(N(CCOC)C(=O)c2ccc(N3CCCC3=O)cc2)c(=O)[nH]c1=O	10	18	0.0	i	-1	.	.	.	-2	-1.4
CCC(C)c1c(O)nc(SCC(=O)N2CCCCCC2)[nH]c1=O (stereo not drawn)	5	3	-1.3	i	97*	1	-1.4	3	.	-0.9
COc1cc2c(cc1OC)C(C)N(C(=O)Cc1ccc(C(F)(F)F)cc1)CC2 (stereo not drawn)	-3	11	2.9	i	-2	37	3.4	-4	-2	1.6
C#CCOc1c(Cl)cc(/C=C2/C(=O)ON=C2C)cc1OCC	-2	7	-9.2	i	23	-3	3.8	5	-10	0.2
C=C(C)CSc1nnc(-c2ccccc2)n1N	.	.	.	.	3	-18	-0.1	13	-8	.
O=C(CCC1N=C2c3ccccc3N=C(SCc3cccc(Cl)c3)N2C1=O)NCc1ccco1 (stereo not drawn)	.	.	.	.	1	18	-3.9	39	4	.
COc1ccc(C(CNC(=O)c2cccc(S(=O)(=O)N3CCCC(C)C3)c2)N(C)C)cc1 (stereo not drawn)	8	2	1.1	i	-6	.	.	.	-3	6.6
O=S1(=O)C=CC(Sc2nc3ccccc3[nH]2)C1 (stereo not drawn)	.	.	.	.	-20	-8	3.4	1	.	.
CC(=O)Nc1ccc(NC(=O)C(=O)N/N=C/c2cccnc2)cc1	22	4	-1.7	i	-3	-16	-1.7	0	-13	-2.2
CCCC(=O)Nc1nn(CC)c2nc3ccc(C)cc3cc12	7	16	0.0	i	-7	-7	?	4	5	-3.1
CC1Cc2ccccc2N1C(=O)c1cccnc1 (stereo not drawn)	.	.	.	.	-9	-9	0.5	4	1	.
CC(Oc1ccccc1F)c1nnc(SCC(=O)NCc2ccc3c(c2)OCO3)o1 (stereo not drawn)	-2	-3	0.4	i	4	.	.	.	0	-4.6
Cc1c(NC(=O)C(C)OC(=O)Cc2ccc(F)cc2)c(=O)n(-c2ccccc2)n1C (stereo not drawn)	1	8	1.6	i	4	-12	.	-2	-2	-16
Cc1ccc(S(=O)(=O)N2CCC(C(=O)NNS(=O)(=O)c3ccc(Cl)cc3)CC2)cc1	.	.	.	.	.	0	-2.2	2	0	.
Cc1ccc(S(=O)(=O)NCCC(=O)NCc2ccccn2)cc1	6	7	1.9	i	3	-18	6.7	6	.	-1.6
CCOC(=O)C1=C(C)NC(=O)NC1c1ccco1 (stereo not drawn)	13	15	14	i	10	.	.	.	-6	2.2
CC1CCC(NC(=O)CCNS(=O)(=O)c2ccc3c(c2)CCC(=O)N3)CC1 (stereo not drawn)	2	7	1.6	i	-7	-9	0.6	12	-3	3.1
CCCCSc1nnc2n(CCc3ccccc3)c(=O)c3c4c(sc3n12)COC(C)(C)C4	.	.	.	.	-2	35	3.0	14	26	.
COc1ccc(CCNc2ccncn2)cc1	.	.	.	.	-6	-5	-2.4	?	15	.
Cc1cccc(CC(=O)N2CCCC2)c1	2	0	-0.8	i	-8	-3	1.1	-7	-5	3.1
Cc1ccccc1NC(=O)N1c2ccccc2CC1C (stereo not drawn)	.	.	.	.	6	-6	4.4	-10	-3	.
Cc1ccc(S(=O)(=O)N/N=C/c2ccc(C(=O)O)cc2)cc1	.	.	.	.	5	-12	-0.7	0	-3	.
COC(=O)CCC(=O)OC1(C)C(=O)C2=CN(C3CCCC3)C(c3ccc(OC)cc3)=CC2=C(Br)C1=O (stereo not drawn)	10	7	11	i	.	33	5.5	63	-11	-1.8
O=C1CN(C(=O)COC(=O)CCSc2ccccc2Cl)c2ccccc2N1	-21	-38	-8.6	.	-5	-6	0.1	1	-5	.
CC(NC(=O)COC(=O)C1CCN(S(=O)(=O)c2ccccc2C(F)(F)F)CC1)c1ccccc1 (stereo not drawn)	2	1	3.6	i	0	-16	0.9	-3	-8	0.5
Cc1cc(C)c(CN2CCC(n3nccc3NC(=O)CCOc3ccccc3)CC2)cc1C	-5	-16	4.0	i	-4	25	-1.4	-8	-1	7.6
CCOCCCNC(=O)C(NC(=O)c1ccccc1O)c1ccc(C)cc1 (stereo not drawn)	-19*	-7.6*	0.1*	i	10	25	-5.7	-3	11	0.3
COc1ccc(C(=O)Nc2cc([N+](=O)[O-])ccc2N2CCCC2)cc1	-15	1	1.3	i	19	9	0.4	1	-1	2.2
CNC(=O)c1cccc(NC(=O)C(C)c2ccc3cc(OC)ccc3c2)c1 (stereo not drawn)	0	-28	-0.9	i	-14	7	2.3	14	.	-6.4
Cc1ccc2nc(NC(=O)CNS(=O)(=O)c3ccc(Br)s3)sc2c1	.	.	.	.	-2	-4	4.2	17	-8	.
CCOc1ccc(/C=N/NC(=O)CN2CCSCC2)cc1	.	.	.	.	0	-7	-0.2	-5	.	.
(list continues)
SMILES	Ecoli rRNA inh	Ecoli rRNA inh OD600	Ecoli rRNA inh RFP	FGF22 binding	ALR inh	T cruzi repl	RanGTP-Imp inh	Calb FLC	Beta cell apopt	AF4-AF9 inh
O=C(N/N=C/c1cc([N+](=O)[O-])ccc1O)C1C2CCCCC21 (stereo not drawn)	.	.	.	.	-6	-15	3.1	101*	6	.
COc1ccc(C(=O)/C=C(/C)N(C)C)cc1	.	.	.	.	.	-6	-0.5	-21	5	.
O=C(/C=C/Nc1ccc(S(=O)(=O)Nc2ncccn2)cc1)c1cccs1	3	-9	-1.1	i	-5	20	3.1	-3	-4	-0.8
O=C(Nc1cccc(-c2cn3cccnc3n2)c1)c1ccc2c(c1)OCO2	-10	-9	1.8	.	12	7	4.0	?	8	.
Cc1ccc(-n2ncc3c(NCCCN4CCOCC4)ncnc32)c(C)c1	5	8	-3.1	i	4	-3	0.5	4	0	-1.9
CCOc1ccc(CCNC(=O)c2cc3c(C)nccc3[nH]c2=O)cc1OCC	-21	-39	-7.5	i	1	-12	0.9	-2	-3	-4.9
O=C1N=C(c2ccccc2)C(c2ccccc2)N1 (stereo not drawn)	.	.	.	.	99*	-2	-1.5	-6	0	.
Cn1c(=O)oc2cc(S(=O)(=O)CCC(=O)Nc3ccccc3)ccc21	6	14	2.6	i	-8	-21	-0.9	-4	7	1.0
O=C(O)c1ccc(CNCc2ccccc2Cl)cc1	.	.	.	.	2	1	-0.4	7	-4	.
CC(=O)Nc1cccc([N+](=O)[O-])c1	12	8	-1.6	i	-7	-5	?	7	-6	-0.9
